# Rce1 inhib: blocks yeast Ras-converting enzyme | calls only | AID 2563 | yeast membranes, quenched prenylated peptide cleavage fluorescence | hit rate 0.27% among 290,000;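 active = fall in fluorescence gain of 50% or more versus controls, with final raw signal at or below 3038400; inconclusive = same 50% fall but final raw signal above 3038400; inactive = fall in fluorescence gain under 50%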;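 also: plate controls were neutral control wells for no effect and wells lacking membranes for full effect; tested at 10 µM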
# Target sequence (Q03530 whole entry, looked up): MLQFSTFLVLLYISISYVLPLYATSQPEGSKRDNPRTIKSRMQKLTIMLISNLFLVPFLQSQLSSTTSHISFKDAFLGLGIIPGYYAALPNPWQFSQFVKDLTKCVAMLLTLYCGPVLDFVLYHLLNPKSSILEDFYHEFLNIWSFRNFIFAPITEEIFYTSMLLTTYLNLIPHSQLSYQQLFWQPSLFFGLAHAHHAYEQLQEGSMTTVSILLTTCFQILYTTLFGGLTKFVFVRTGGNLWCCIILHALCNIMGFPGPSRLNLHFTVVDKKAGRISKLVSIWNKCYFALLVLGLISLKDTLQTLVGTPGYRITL
# Yeast UUG start: yeast start codon fidelity modulation; S. cerevisiae UUG-firefly luciferase reporter, luminescence/redox ratio; activity score, % at 18.7 µM; hit rate 0.13% among 350,000;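 active = replicate mean at a twofold rise or more, about +100% in these data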;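 also: firefly luciferase made from a UUG start codon reports start codon fidelity; reporter light over untreated wells divided by growth signal over untreated wells; some hits fall short of that in this replicate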
# Env fusion inh: HIV envelope-mediated fusion inhibition; inhibition, % at 12.3 µM; HeLa-JRFL Env/CEM21 cell fusion, luciferase; hit rate 1.1% among 360,000; AID 651610;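 active = mean replicate inhibition score of at least 50 and every replicate individually at or above 50; inconclusive = only one of the two criteria met; inactive = mean below 50 and not all replicates reaching 50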;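 also: 0% = plate neutral controls and 100% = maraviroc near 300 nM; one replicate is shown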
# eIF4H FP inh: inhibitors of RNA binding by human eIF4H; Q15056; eIF4H fluorescence polarization binding assay; inhibition, % at 35 µM; hit rate 0.94% among 290,000; AID 2012;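 active = 50% or more with normal probe brightness, or confirmed in later tests; inconclusive = above 50% with abnormal brightness, or retests that disagree; inactive = below 50% or failed in later tests; about a fifth of its hits are not listed in these tables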;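 also: calls also rest on retests at 20 µM and on dose response follow-up; 0% = protein and probe with vehicle and 100% = probe without protein; strong numbers were not always called active; many hits fall short of the cut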
# PABP polyA inh: blocks human PABP binding to poly(A) RNA; P11940; fluorescence polarization; inhibition, % at 35 µM; hit rate 1% among 290,000;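 active = 50% or more with normal probe brightness, or confirmed in later tests; inconclusive = above 50% with abnormal brightness, or retests that disagree; inactive = below 50% or failed in later tests; about a fifth of its hits are not listed in these tables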;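 also: calls also rest on retests at 20 µM and on dose response follow-up; controls were probe without protein and protein plus probe with vehicle; some compounds called inactive have numbers as strong as hits; many hits fall short of the cut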
# CSC inhib: blocks cancer stem cells; AID 2717; hit rate 1.1% among 300,000; inhibition, % at 7.5 µM; cancer stem cell-like cells viability, luminescence;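 active = mean at 75% or more and at least half the replicates too; inconclusive = mean and replicates disagree; tested in HMLE shEcad cells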;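 also: 0% = median of negative and 100% = median of positive control wells; the first replicate is given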
# MT1-MMP act inh: blocks activation of human MT1-MMP; hit rate 0.061% among 360,000; GFP/RFP ratio change, % at 20 µM; HT1080 RFP-PRO-GFP cells, GFP/RFP ratio fluorescence, overnight; percent of plate control window, DMSO zero; AID 651647;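 active = GFP/RFP ratio change of at least 30% with cell ATP level not reduced by more than half and red fluorescence within 50% of control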; also: strong numbers were not always called active
#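 Assay system: HT1080 cells carrying an RFP-PRO-GFP reporter | Dosing: Single dose of 20 µM compound, 1% DMSO final | Incubation: Cells overnight before dosing, compound overnight, 37 °C, 5% CO2 | Evaluation: GFP/RFP fluorescence ratio | Control set: DMSO and RFP-L50D-GFP cell wells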
# eIF4H FP inh retest: second read-out of eIF4H FP inh, no call of its own (marks repeat the call); inhibition, %; compound at 20 µM; confirmation average;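 mean of two retest wells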
# PABP polyA inh retest: second read-out of PABP polyA inh, no call of its own (marks repeat the call); inhibition, %; compound at 20 µM; confirmation repeats;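 mean of two retest wells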
# MT1-MMP act inh RFP: recorded beside MT1-MMP act inh, whose call it bears; RFP signal change, %; measured here: RFP expression control read;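 0 = vehicle wells; hits needed this value within 50% of zero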
# Starred values were filed as active, the others as inactive; i = inactive; ? = inconclusive; . = not tested or not shown.
SMILES,Rce1 inhib,Yeast UUG start,Env fusion inh,eIF4H FP inh,PABP polyA inh,CSC inhib,MT1-MMP act inh,MT1-MMP act inh RFP,others
C=CCNC(=S)Nc1sc2c(c1C(=O)OCC)CC(C(C)C)OC2 (stereo not given),i,-15,-18,-9,-8,.,2,-2,
COC(=O)CCC(=O)OC1(C)C(=O)C=C2C=C(C3CC3)N(C3CC3)C=C2C1=O (stereo not given),i,-21,-2,60,28,1,-2,4,eIF4H FP inh retest=18;PABP polyA inh retest=33
CSc1nsc(/C=C/Nc2ccc(Cl)cc2)c1C#N,i,-17,.,-6,-3,-18,-53,0,
O=C(NCCN1CCOCC1)C1CCC(CNS(=O)(=O)c2ccc(Cl)cc2)CC1 (stereo not given),i,2,.,5,5,24,2,-4,
CCOCCCNC(=O)c1cn(CC)c2ccc(S(=O)(=O)N3CCOCC3)cc2c1=O,i,-12,-8,0,9,6,1,4,
C/C(=N\Nc1cc(N2CCCCC2)nc(C)n1)c1ccc(Br)cc1,i,-5,-7,-6,0,105*,-9,-25,
CCc1cccc2c(-c3csc(=NC)n3C)c[nH]c12,i,.,31,1,0,4,0,3,
O=C(COc1ccc(S(=O)(=O)NCc2ccccc2)cc1Cl)NCc1ccncc1,i,-2,6,-8,6,6,2,-1,
Cc1cccc(NC(=O)c2sc3nc(N4CCOCC4)c4c(c3c2N)CCCC4)c1,i,-21,19,-4,4,7,3,2,
O=C(NC(=S)Nc1ccc(S(=O)(=O)Nc2nccs2)cc1)c1ccccc1,i,-35,2,-1,-9,4,2,5,
CCOc1ccc2c(c1)nc(SCC(=O)c1cccs1)n2C,i,-20,.,3,2,-2,1,1,
C=CCn1c(=O)c2ccccc2n2c(SCc3nnc(-c4ccccc4Br)o3)nnc12,i,-11,6,-2,-2,-2,3,-1,
O=C(COC(=O)c1ccc(S(=O)(=O)NCc2ccco2)cc1)Nc1ccccc1OC(F)F,i,9,.,2,8,-2,0,8,
CCOc1ccccc1N/C=C(\C#N)c1nc2ccccc2n1C,i,.,-38,-2,-2,.,4,1,
Cc1ccc(S(=O)(=O)N2C[C@H]3C(=O)C[C@@H](c4cccc(C)c4)N(S(=O)(=O)c4ccc(C)cc4)[C@H]3C[C@H]2c2ccccc2)cc1,.,13,-3,.,.,.,-6,-5,
O=S1(=O)CC(O)C(N2CCC(c3ccccc3)CC2)C1 (stereo not given),i,-26,.,4,-11,-9,5,1,
CCNC(=O)C1(C)CCN(Cc2ccc(-c3ccccc3)cc2)C1 (stereo not given),.,6,16,.,.,.,1,-5,
CNCCC(Oc1ccccc1OC)c1ccccc1 (stereo not given),i,-27,-34,.,.,-9,-1,5,
CN(C)c1ccc(O)c2c1CC1CC3[C@@H](N(C)C)C(=O)C(C(N)=O)C(=O)[C@]3(O)C(=O)C1C2=O (stereo not given in full),.,0,87*,.,.,.,-9,3,
Cn1c(SCC(=O)c2ccccc2)ncc(C(=O)Nc2ccc(F)cc2)c1=O,i,-16,-2,.,.,8,-1,2,
CC(C)C(C)(C#N)NC(=O)CSc1nncn1-c1ccccc1 (stereo not given),i,.,10,1,11,-2,3,5,
Cc1oc(-c2ccccc2F)nc1CN1CCC(C(=O)NCc2cccs2)CC1,i,-6,-108,-2,13,7,4,4,
O=C(COc1nc2ccccc2nc1N1CCOCC1)NCC(F)(F)F,i,-20,-12,-6,-14,-11,-1,-1,
COc1ccc(N2CC(C(=O)N/N=C/c3ccccc3)CC2=O)cc1 (stereo not given),i,9,3,0,-6,1,2,-2,
CC(C)Oc1ccc(C(=O)Nc2ccc3c(c2)n(C)c(=O)n3C)cc1,i,14,6,6,4,7,10,4,

# Among those listed so far, 3 contain a Cl atom:
SMILES,Rce1 inhib,Yeast UUG start,Env fusion inh,eIF4H FP inh,PABP polyA inh,CSC inhib,MT1-MMP act inh,MT1-MMP act inh RFP,others
CSc1nsc(/C=C/Nc2ccc(Cl)cc2)c1C#N,i,-17,.,-6,-3,-18,-53,0,
O=C(NCCN1CCOCC1)C1CCC(CNS(=O)(=O)c2ccc(Cl)cc2)CC1 (stereo not given),i,2,.,5,5,24,2,-4,
O=C(COc1ccc(S(=O)(=O)NCc2ccccc2)cc1Cl)NCc1ccncc1,i,-2,6,-8,6,6,2,-1,

# (further entries)
SMILES,Rce1 inhib,Yeast UUG start,Env fusion inh,eIF4H FP inh,PABP polyA inh,CSC inhib,MT1-MMP act inh,MT1-MMP act inh RFP,others
CCCCNC(=O)COC(=O)c1ccc(NC(C)=O)cc1,i,-13,3,2,4,.,1,1,
CN1/C(=C\C(=O)CN2C(=O)NC3(CCCCCC3)C2=O)C(C)(C)c2ccccc21,i,-17,19,51,38,-10,34*,25*,eIF4H FP inh retest=8;PABP polyA inh retest=6
COc1ccc(CC(=O)OCC(=O)NCc2ccccc2Cl)cc1OC,i,.,20,4,9,-6,1,6,
CS(=O)(=O)C1=NSC2=NC(=O)/C(=C\c3ccc(OC(=O)c4ccco4)cc3)C(=N)N21,i,.,.,-5,14,-4,.,.,
COC(=O)COc1ccc2occ(C(C)=O)c2c1,i,.,.,-2,-8,-3,-1,2,
CCN(CC)S(=O)(=O)c1ccc2c(c1)nc(SCc1nc3ccsc3c(=O)[nH]1)n2CC,i,-5,1,6,8,-16,1,-1,
COc1cc2c(=O)n(Cc3ccco3)c(=O)n(CC(=O)c3cccc(Br)c3)c2cc1OC,i,.,.,-10,3,-4,.,.,
CCc1nc2c(OCc3ccc4c(c3)OCO4)cccn2c1N(C=O)Cc1ccccc1,.,-10,-13,.,.,.,-5,-2,
CCc1nnc(NC(=O)CSc2nnc(Cc3cccn3C)n2C)s1,i,-5,-22,-8,-3,7,3,5,
O=C1N=NC2=C1c1c3ccccc3c(O)n1CC2,i,-8,-14,-2,15,-5,3,-1,
Cc1nc(-c2ccccc2O)n(-c2ccccc2)n1,i,-9,.,-1,3,-11,3,4,
Cc1ccnc(NC(=O)c2ccc(Cl)c(NC(=O)c3ccccc3C)c2)c1,i,-9,.,0,-6,-1,-2,-3,
OCCCNc1c2ccccc2nc2ccccc12,i,-18,-1,0,5,32,-7,1,
CCOC(=O)c1cnc2ccc(OCC)cc2c1NCCN1CCOCC1,i,-6,-4,82,54,8,-3,-1,eIF4H FP inh retest=-11;PABP polyA inh retest=10
Cc1c(O)c2c3c(cccc3c1O)C(=O)N(c1ccccc1)C2=O,i,0,8,?,-7,1,-235,-12,
Nc1ccc2ccccc2c1N=Nc1ccccc1,.,-5,27,.,.,.,20,4,
CC(=O)N(C)c1ccc(NS(=O)(=O)Cc2ccccc2)cc1,i,22,-11,0,7,-4,1,-1,
CN(C(=O)Nc1cnccc1C(F)(F)F)C1CCCCC1,i,-3,-6,5,5,3,-2,1,
O=C(Nc1ccon1)c1cc2ccccc2oc1=O,i,-17,7,-1,12,-1,2,3,
CCCc1cc(=O)oc2cc(C)cc(OC(C)C(=O)NCc3ccccn3)c12 (stereo not given),i,-9,-4,.,.,-8,-3,-1,
Cc1cc(N2C(=O)C3CCC(c4ccccc4)CC3C2=O)no1 (stereo not given),i,-13,-6,3,-1,-6,1,0,
Cc1c(Cl)cccc1NC(=S)N1CCN(Cc2ccccc2)CC1,i,-25,1,-3,11,-14,-1,-4,
CCOC(=O)NC(C)N1C(=O)C2C3C=CC(C3)C2C1=O (stereo not given),i,.,22,-5,-6,-7,2,4,
CCCN(CCC)S(=O)(=O)c1ccc(NS(C)(=O)=O)cc1,.,-18,-63,6,2,-15,3,2,
NCCCC[C@H](N)c1nnc([C@H](CC(=O)O)NC(=O)C2CCNCC2)o1,i,-44,-9,-1,45,12,-1,2,
# (next part)
SMILES,Rce1 inhib,Yeast UUG start,Env fusion inh,eIF4H FP inh,PABP polyA inh,CSC inhib,MT1-MMP act inh,MT1-MMP act inh RFP,others
CCOC(=O)Cn1cnc(-c2ccc([N+](=O)[O-])cc2)c1,i,-4,-29,0,9,8,0,2,
O=C1c2ccccc2C(Nc2ccc(S(=O)(=O)N3CCOCC3)cc2)N1c1ccccn1 (stereo not given),i,-20,14,2,-2,-10,-3,-1,
Cn1cnc(S(=O)(=O)Nc2ccc(Cl)c(C(F)(F)F)c2)c1,i,-6,2,-6,4,.,-2,-4,
COc1cc(CNC2CCCC2)cc(OC)c1OC,i,-12,.,10,-3,-3,1,6,
CCOn1c(=O)c(=O)n(OC)c2ccccc21,i,.,-39,4,6,-15,2,5,
O=C(CCn1cccc1)NC1CCCc2ccccc21 (stereo not given),i,0,.,-4,-8,-11,-2,2,
Cc1ccc(S(=O)(=O)N2CCN(C(=O)CCn3cncn3)CC2)cc1C,i,-16,3,-8,4,.,3,3,
N#Cc1cc(C(=O)c2cc(Br)ccc2O)cn(C2CC2)c1=O,i,-8,.,4,-3,7,3,1,
O=C(NCc1ccccc1Cl)C1CCN(C(=O)c2sccc2-n2cccc2)CC1,i,-4,-11,13,2,0,1,-8,
COc1ccc(S(=O)(=O)N(C)c2ccc(C(=O)N3CCCCC3)cc2)cc1,i,2,19,-10,2,-6,5,-10,
COc1ccccc1CC(=O)N1CCCc2ccccc21,i,8,.,6,10,-1,-14,-3,
COc1cccc(NC(=S)NN=C2CCC(C(C)(C)C)CC2)c1 (stereo not given),i,-18,-3,-6,-4,-3,-1,-6,
CCn1c(C)nc2cc(C#N)ccc21,i,1,-6,12,8,-11,-2,0,
O=C(NCCc1ccc(Cl)cc1)C1CCN(C(=O)N2CCOc3ccccc32)CC1,i,6,-24,2,-1,-16,-5,-8,
COc1cc(CNCC(C)C)cc(Br)c1OCC(=O)Nc1ccccc1,.,-13,-103,-2,-10,-2,10,-1,
COC(=O)Cc1c(C)c2ccc(OCC(=O)N3CCC(C)CC3)c(C)c2oc1=O,i,-10,-15,11,6,5,7,-9,
O=C(c1ccc2ccccc2n1)N(CCO)Cc1ccccc1,i,20,46,-4,18,2,-1,2,
CC(NC(=O)COC(=O)C1CCN(c2ccc(C(F)(F)F)cn2)CC1)c1ccc(Br)cc1 (stereo not given),i,-7,-1,-19,-6,.,-3,3,
CC1(C)CC2(CC(C)(C)N1)OC(=O)N1CCc3ccccc3C12C (stereo not given),i,-21,1,5,2,-1,0,2,
Cc1ccc(NC(=O)C(NCc2ccccn2)c2ccccc2)cc1 (stereo not given),i,.,16,-1,3,-11,-2,1,
CC(C)(CC(=O)O)Cc1nc(-c2ccc(Cl)cc2)no1,i,-11,-10,51,28,3,0,5,eIF4H FP inh retest=-13;PABP polyA inh retest=9
CCCn1c(SCC(=O)N2CCCC(C)C2)nnc1-c1cccnc1 (stereo not given),i,.,5,-13,8,-12,2,3,
COc1ccc(CCNC(C)=O)cc1,i,9,.,0,-5,-10,4,2,
O=C(COC(=O)CNC(=O)c1cccc(Br)c1)Nc1nnc(-c2ccccc2)o1,.,-20,4,.,.,.,2,3,
O=C(/C=C\Nc1ccc2c(c1)OCO2)c1ccccn1,i,-72,.,6,-4,-14,0,-3,
O=C(O)C1Cc2ccccc2CN1C(=O)COc1ccc(Cl)cc1Cl (stereo not given),i,.,11,49,-4,1,4,-1,
COC(=O)C1C(=O)NC(SC)=C(C#N)C1c1ccccc1 (stereo not given),i,15,.,-4,-6,3,0,2,
Nc1nonc1-n1nnc(C(=O)N/N=C/c2ccc(F)cc2)c1-c1ccc2c(c1)OCO2,i,13,8,-6,-5,6,4,5,
Cc1cc(C(=O)OCC(=O)Nc2ccc(S(N)(=O)=O)cc2)c2ccccc2n1,.,.,9,-18,11,-2,0,1,
COc1ccc(-c2csc(-c3ccc(C(=O)O)cc3)n2)cc1,i,.,-19,6,-1,1,-1,-2,

# From PubChem BioAssay
